RN4220 kill = growth inhibition of S. aureus RN4220, primary screen, OD600 | 16 h | 0.33% of 330,000 active | inhibition, % (no concentration beside the values);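 active = z-score of -3 or lower and OD600 up to 0.18 on both plates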;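 also: plate controls were untreated cells for no effect and reference antibiotic for full effect; stock transfer was 100 nL into about 80 µL; one replicate is shown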
Mtb hypoxia inh = PubChem AID 1159583; M. tuberculosis hypoxia-regulated fluorescent reporter, fluorescence; fluorescence inhibition, % (concentration not given with the values); 0.1% of 300,000 active;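 active = 35 to 45% if threefold the growth effect, above 45% if 1.5-fold the growth effect; inactive = the rest, general growth blockers included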;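 also: wells of about 50 µL received 100 nL stock; 0% = vehicle wells and 100% = reference inhibitor wells; whole bacteria with a GFP reporter of the hypoxia response; strong numbers were not always called active; many hits fall short of the cut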
Autofluor counter = flagged as autofluorescent in microsphere protease counterscreen | 3.1% of 360,000 active | compound autofluorescence counterscreen, microsphere flow cytometry; stronger effect = higher value | fluorescence intensity (test concentration not listed);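 active = at least 3 SD above the mean of all compounds, about 16000 in these data; inconclusive = too few beads counted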;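 also: 100 nL of 1 mM stock went into each well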
PrP 5UTR inh = inhibition of PrP 5' UTR reporter expression; cell-based PrP 5' UTR mRNA reporter, plate reader; inhibition, % (test concentration not listed); 0.35% of 340,000 active;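 active = every replicate at 50% or more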;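 also: 0 = median of the neutral control wells; tested in H4 reporter cells; numbers are from one replicate; inactives centre near -14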
BJeLR viability = MLPCN primary cell-based screen for lethality selective to Ras in HRASV12 cells | BJeLR (HRASV12) viability, CellTiter-Glo ATP luminescence, 48 h; reference of the scale not given here | inhibition, % (test concentration not listed) | 0.17% of 300,000 active;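 active = replicate mean above 50%; inconclusive = above 50% but judged a plate artefact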;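 also: 50 nL library stock added to about 25 µL; numbers are from one replicate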
ugtP null kill = growth inhibition of ugtP-null S. aureus, primary screen, RN4220 ugtP deletion, OD600. 16 h; some inactives read as strong as hits. growth inhibition, % (concentration not given with the values). 0.54% of 330,000 active;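 active = z-score under -3 and OD600 up to 0.15 on both plates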;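 also: plate controls were untreated wells for no effect and antibiotic for full effect; wells of about 80 µL received 100 nL stock; the first replicate is given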
Mtb hypoxia inh growth = recorded beside Mtb hypoxia inh, whose call it bears; growth inhibition, %; measured here: M. tuberculosis growth (absorbance);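 0% = vehicle and 100% = reference antibiotic; read after six days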
The depositor's hits bear a star; ? = inconclusive; . = not tested or not shown. No enrichment for hits. Share with any hit: about 4.1%.

Value order: BJeLR viability, RN4220 kill, Mtb hypoxia inh growth, Autofluor counter, Mtb hypoxia inh, PrP 5UTR inh, ugtP null kill
COc1ccc(C=NNC(=O)c2c(C)nc3ccc(Cl)cn23)cc1OC
→ ., 1.6, 8, ., -10, ., 0
Cn1nc(C(=O)OCC(=O)N(Cc2ccccc2)C(C)(C)C)c2ccccc2c1=O
→ ., 1.2, 11, 5504, 0, -17, 1
CCCCn1c(SCC(=O)Nc2nc(C)cs2)nnc1-c1cccnc1
→ 4, 5.4, 7, 10723, 4, -24, -2
CC1=NN(C(=S)Nc2ccccc2)C(c2ccccc2)C1 (stereo unspecified)
→ -3, 2.7, 2, 2578, 11, -27, 7
Cc1cccc(N2CCN(S(=O)(=O)c3ccc(-c4coc(C)n4)cc3)CC2C)c1 (stereo unspecified)
→ 10, -2.9, 4, 6160, 3, -13, 5
COc1cc2c(cc1OC)C1C(CC=C3CCN(C)C31)OC2O (stereo unspecified)
→ ., 5.3, -4, ., -3, ., -16
CCOCCCNC(=S)NCCCNc1nc2c(C)cc(C)cc2cc1C#N
→ ., 4.0, 12, 4693, -2, -3, -3
CCCn1c2ccc(F)cc2c2nnc(NN)nc21
→ 5, 9.6, 0, 4265, -7, -15, 1
CC(=NNC(=O)CC#N)C1COc2ccccc2O1 (stereo unspecified)
→ ., 6.6, 7, ., 3, ., 7
CC1CCc2[nH]c3ccc(C(=O)N4CCCC(C(F)(F)F)C4)cc3c2C1 (stereo unspecified)
→ 0, -0.4, 0, 4904, 3, -17, -9

Value order: BJeLR viability, RN4220 kill, Mtb hypoxia inh growth, Autofluor counter, Mtb hypoxia inh, PrP 5UTR inh, ugtP null kill
CCSc1nc2nccnc2c(=O)[nH]1
→ ., 7.9, 8, 3486, 6, -19, -5
CC(=O)Nc1ccc(S(=O)(=O)Nc2ccc3c(c2)OCO3)cc1
→ -7, 4.7, 5, 4972, -4, -10, 3
O=S(=O)(NN1CCOCC1)c1cc(Cl)cc(Cl)c1O
→ 0, 3.4, 1, 5335, 0, -17, 13
CC1CCc2c(sc3nc(CSc4n[nH]c(N)n4)[nH]c(=O)c23)C1 (stereo unspecified)
→ 13, 1.2, 17, 2441, 1, -21, -22
O=C(Nc1nnc(-c2ccccc2)o1)c1ccc(Cl)cc1
→ 6, 96*, 9, 2267, 6, -19, 99*
Cc1oc(C)c(C(=O)Nc2ccc(CC(=O)O)cc2)c1C(=O)Nc1ccc(CC(=O)O)cc1
→ 3, 0.4, ., 4502, ., -10, 0
Cc1cc(C(=O)NN=Cc2ccc(-c3ccccc3Cl)o2)n[nH]1
→ ., 0.6, 9, ., 16, ., 2
N/C(=N\OC(=O)CCc1ccccc1)c1cccnc1
→ -2, 2.7, -5, 2109, 5, 2, 12
COc1ccc(C2CC(c3cccs3)=NN2C(=O)CSc2nncs2)cc1OC (stereo unspecified)
→ -7, 2.2, -5, 2532, 5, -16, 5
Cc1ccc2cc(CCNC(=O)C(=O)c3c(C)[nH]c4ccccc34)c(=O)[nH]c2c1
→ -6, 4.1, 4, 2224, 6, -18, -4

Value order: BJeLR viability, RN4220 kill, Mtb hypoxia inh growth, Autofluor counter, Mtb hypoxia inh, PrP 5UTR inh, ugtP null kill
Cc1ccc(C(=O)C(OC(=O)COc2ccccc2C)c2ccccc2)cc1 (stereo unspecified)
→ 8, 7.9, 8, 17155*, 10, -16, 29
CC(Sc1nnc(-c2cc3ccccc3o2)n1-c1ccccc1)C(=O)O (stereo unspecified)
→ 2, -0.9, ., 2882, ., -9, 5
O=c1ccc(S(=O)(=O)N2CCCC2)cn1Cc1ccc(F)cc1
→ ., -0.6, -2, 2882, 6, -17, -2
COc1cc2c(cc1OC)[C@@H]1Cc3cc4c(cc3[C@H](C2)N1C)OCO4
→ -14, ., ., 3910, ., -14, .
COc1ccc(CC(=O)Oc2ccccc2C)cc1
→ 10, 4.8, 18, ., 5, 58*, 5
Cc1ccc(-c2nnc(-c3ccc(NC(=O)c4ccco4)cc3)o2)cc1
→ -10, 7.4, -1, 2481, -1, -22, -7
CC(C)(C)C(=O)NC(=C(Cl)Cl)P(=O)(O)O
→ ., -3.2, 5, 24171*, 2, -10, 0
C1CNC2NCCNC2N1 (stereo unspecified)
→ -9, -0.2, -3, 3777, -3, -6, 1
CCOc1ccc(NC(=O)[C@H](C)NC(=O)C2CC(=O)N(c3ccc(OC)cc3)C2)cc1 (stereo partly specified)
→ -4, -0.1, -6, 3885, 1, 2, 0
Cn1c(CNC(=O)CCNC(=O)c2ccccc2)cc(=O)n(C)c1=O
→ 6, 1.2, -2, 5615, 8, -26, 2

Some of the entries above in a different format.
SMILES | BJeLR viability | RN4220 kill | Mtb hypoxia inh growth | Autofluor counter | Mtb hypoxia inh | PrP 5UTR inh | ugtP null kill
CC(C)(C)C(=O)NC(=C(Cl)Cl)P(=O)(O)O | . | -3.2 | 5 | 24171* | 2 | -10 | 0
O=c1ccc(S(=O)(=O)N2CCCC2)cn1Cc1ccc(F)cc1 | . | -0.6 | -2 | 2882 | 6 | -17 | -2
Cc1ccc(C(=O)C(OC(=O)COc2ccccc2C)c2ccccc2)cc1 (stereo unspecified) | 8 | 7.9 | 8 | 17155* | 10 | -16 | 29
Cn1c(CNC(=O)CCNC(=O)c2ccccc2)cc(=O)n(C)c1=O | 6 | 1.2 | -2 | 5615 | 8 | -26 | 2
CCOc1ccc(NC(=O)[C@H](C)NC(=O)C2CC(=O)N(c3ccc(OC)cc3)C2)cc1 (stereo partly specified) | -4 | -0.1 | -6 | 3885 | 1 | 2 | 0

The list goes on:
Value order: BJeLR viability, RN4220 kill, Mtb hypoxia inh growth, Autofluor counter, Mtb hypoxia inh, PrP 5UTR inh, ugtP null kill
COc1ccc(C(=O)COC(=O)c2cc(S(=O)(=O)N3CCCCC3)ccc2N2CCOCC2)c(OC)c1
→ -8, ., ., 5798, ., -26, .
COc1cc(CN=Cc2c(O)n(Cc3ccccc3)c(=S)[nH]c2=O)cc(OC)c1
→ 2, 3.8, 2, 5429, -14, -18, -1
CCCn1c(N)c(N2CCCCC2)c(=O)n(CC(=O)Nc2ccc(C(C)=O)cc2)c1=O
→ ., 1.2, 1, 2745, 2, -8, 4
Clc1ccc(-n2ncc3c(NCCN4CCOCC4)ncnc32)cc1
→ 2, -0.2, ., 3403, ., 18, 11
O=[N+]([O-])c1ccc(O)c(C=Nn2cnnc2)c1
→ ., 77, 4, ., 9, ., 61
Cc1ccc(SC(C)C(=O)N2CCN(c3ccccc3)CC2)cc1 (stereo unspecified)
→ -3, 5.7, 0, 4570, 8, -16, 0
Cc1ccc(CSCC(=O)NCc2ccc3c(c2)OCO3)cc1
→ 8, 1.4, -7, 6277, 4, -24, 7
COC(=O)N1CC(=O)N(OC)C1c1ccc(Cl)cc1Cl (stereo unspecified)
→ 3, 4.1, 10, 9175, 8, -5, -4
Brc1ccc2[nH]cc(C=NN3CCCCCC3)c2c1
→ ., -4.4, 7, 4006, 9, -26, -2
CCC(C)OC(=O)C1=C(C)NC(=O)NC1c1ccc(F)cc1 (stereo unspecified)
→ 5, 4.1, 5, 10770, 11, -9, 1

Value order: BJeLR viability, RN4220 kill, Mtb hypoxia inh growth, Autofluor counter, Mtb hypoxia inh, PrP 5UTR inh, ugtP null kill
c1cc(SSc2ccncc2)ccn1
→ -4, 2.1, -10, 3935, 8, -10, 1
Cc1ccc(NC(=O)CN(Cc2ccccc2)S(C)(=O)=O)cc1C
→ -5, 3.5, 14, 20638*, 4, -22, 3
O=C(/C=C/c1cn(CC(O)CN2CCCCCC2)c2ccccc12)c1cccs1 (stereo unspecified)
→ -3, -2.0, ., 4937, ., -13, -1
CC(NC(=O)CN(C1CCCCC1)S(C)(=O)=O)c1ccccc1 (stereo unspecified)
→ 8, 1.9, ., ., ., -6, -3
COc1cc(C=NNC(=O)c2sc(N)nc2C)cc(OC)c1OC
→ ., 3.6, ., ., ., ., -11
Clc1ccc(-c2nnc(COc3ncnc4sccc34)o2)cc1
→ -2, 6.1, 2, 2679, 6, -24, -10
Cc1cccc(C)c1NC(=S)N(CCN(C)C)C(C)c1ccccn1 (stereo unspecified)
→ 2, 2.4, 15, 4998, 14, -13, 5
O=C(NCCO)c1cc2cc(Cl)cc(Cl)c2oc1=O
→ -1, 4.6, 8, 2207, 13, -22, 7
CN(C)S(=O)(=O)c1ccc(N2CCCC2=O)c([N+](=O)[O-])c1
→ -2, 1.9, 4, 1970, 12, -5, 6
CCOc1cc(C=NNC(=O)c2cccc(S(=O)(=O)N3CCCC3)c2)ccc1O
→ ., 0.0, 17, 3672, 4, -7, -4

Value order: BJeLR viability, RN4220 kill, Mtb hypoxia inh growth, Autofluor counter, Mtb hypoxia inh, PrP 5UTR inh, ugtP null kill
O=Cc1c(N2CCSCC2)nc2ccccn2c1=O
→ 0, 0.3, 16*, 3657, 40*, -8, 1
Cn1c(=O)c(=O)n(C)c2cc(S(=O)(=O)N3CCN(c4cccc(C(F)(F)F)c4)CC3)ccc21
→ 5, 1.3, 1, 21964*, -12, -3, -1
CC1(c2nnc(-c3cccc(Cl)c3)o2)CC(c2cccnc2)=NO1 (stereo unspecified)
→ -3, 8.5, 11, 4367, 13, -11, -9
O=C1CC(NCc2ccco2)C(=O)N1CCc1ccccc1 (stereo unspecified)
→ 1, 9.6, 10, 9809, 4, -26, -2
COCCNC(=O)c1cc(-c2ccc3c(c2)OCO3)on1
→ 15, -3.3, -5, 11902, -16, ., -8
COCCCNC(=O)C[C@H]1C[C@H](C(=O)N2CCOCC2)[C@@]2(C)c3[nH]c4cc(CCC(=O)N(C)C)ccc4c3CCN2C1=O
→ ., 0.5, 0, 3431, 1, -19, 0
Cc1cc(C)c(NC(=O)CNC(=O)COC(=O)Cc2cccs2)c(C)c1
→ 0, 3.4, -1, ., 1, -88, 3
Cc1ccc(C(=O)NC2CCSC2=O)cc1 (stereo unspecified)
→ 2, -2.4, 8, 12264, -5, -1, -2
CCOC(=O)c1cnn(-c2nc(-c3ccc(C)cc3)cs2)c1C(F)(F)F
→ -6, 0.6, 11, 4967, 1, -32, 32
CCOc1ccc(S(=O)(=O)N2CCCCC2)cc1NC(=O)CN1C(=O)NC(C)(c2ccccc2)C1=O (stereo unspecified)
→ 4, 3.4, 0, ?, 4, -29, 8

Value order: BJeLR viability, RN4220 kill, Mtb hypoxia inh growth, Autofluor counter, Mtb hypoxia inh, PrP 5UTR inh, ugtP null kill
O=C(Cc1ccccc1)Nc1ccc(NC(=O)c2ccccc2)nc1
→ -2, -5.2, 8, 4826, 9, -43, 4
Clc1ccc(OCCCCN2CCCCC2)cc1
→ 2, 0.9, 2, 3168, 17, -19, 13
CN(C)CCCN(C(=O)COc1ccc(Cl)cc1)c1nc2cc3c(cc2s1)OCCO3
→ 1, -0.8, 3, 6434, 6, -35, 91*
Cc1cc(C)nc(N/N=C/c2cn[nH]c2-c2ccccc2)n1
→ -4, ., ., 3365, ., -7, .
O=C(Cc1csc(N2CCOCC2)n1)NN=Cc1cccc(O)c1
→ ., 6.6, 6, ., 7, ., -5
Cc1nc(C)c(C(=O)N2CCCC(CCC(=O)NCc3ccc(F)c(F)c3)C2)s1 (stereo unspecified)
→ 12, 4.7, 10, 4026, 13, -18, 0
COc1cc(C2CC(=O)N(CC(=O)NCc3ccco3)c3ccccc3S2)cc(OC)c1OC (stereo unspecified)
→ 0, 3.5, 8, 24105*, 2, -12, 0
O=C(Nc1nccs1)c1cc2c(s1)CCCCC2
→ 18, -5.8, 6, 3185, -2, 64*, -11
CC1CCc2nc(NC(=O)CN3CCN(Cc4ccc5c(c4)OCO5)CC3)sc2C1 (stereo unspecified)
→ -3, -12, 14, 3141, 17, -22, -2
COc1cccc(-n2c(N)c(C(=O)Nc3c(C)n(C)n(-c4ccccc4)c3=O)c3nc4ccccc4nc32)c1
→ 11, ., ., 3632, ., -31, .

Value order: BJeLR viability, RN4220 kill, Mtb hypoxia inh growth, Autofluor counter, Mtb hypoxia inh, PrP 5UTR inh, ugtP null kill
CCCCN(CC)C(=O)c1ccc(Cl)c(Cl)c1
→ 8, 2.3, 3, 3377, 14, -21, 4
COc1cccc(-c2ncc3ccccc3c2COC(=O)N(C)C)c1
→ ., 6.0, 11, 3903, 1, -6, 1
CC(=O)C1=C(C)OC(N)=C(C#N)C1c1cccnc1 (stereo unspecified)
→ 3, 3.5, 1, 4199, 12, -11, 7
COc1ccc(CCNC(=O)CCNC(=O)N2CC(=O)Nc3ccccc32)cc1OC
→ 1, 0.2, 1, 6217, -1, -16, 2

Bioassay records (PubChem)
